Assay outcomes deposited in PubChem BioAssay by National Center for Advancing Translational Sciences (NCATS).
PMP22 txn: Cell-based coincidence reporter assay to measure PMP22 gene transcription in S16 Pmp22-F2sN cells - Primary screen | S16 Pmp22-F2sN Schwann cells (luciferase reporters placed in the Pmp22 gene), FLuc/NLuc coincidence luminescence, 24 h | Potency, µM (top dose mostly 57.5 µM), for inactives: top-dose activity change, negative = inhibition, usual class: inhibitors | 43,000 compounds, 2% hits | AID 1508649, 2021; active = clear falling dose curves in both reporters; inconclusive = both reporters move, but less clearly or upward; inactive = either reporter flat; the % is the NLuc reporter signal; note: % is set by controls: 0 for no effect and ±100 for the full control effect; some results filed as inactive show a strong effect at the top dose
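Luminescent read-out of sequential FLuc and NLuc signals from a reporter embedded in the Pmp22 3' UTR of S16 Schwann cells, taken after 24 h compound exposure at 37C; compounds reducing both signals score as inhibitors of expression.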
HTT promoter inh: Primary qHTS for Identification of Small Molecule Inhibitors of Huntingtin Promoter Activity | 48,000 compounds, 0.93% hits | Potency, µM (titrated, usually from 57.5 µM), for inactives: top-dose activity change, negative = inhibition, actives largely listed as inhibitors | HEK293 HTT promoter firefly luciferase reporter (activity 0% = vehicle and -100% = no light), 24 h; active = well fitted inhibition curve with a large enough effect; inconclusive = small, poorly fitted or top-dose-only effect; inactive = no such curve, though single readings can be large or run the other way; note: nearly all actives have a fitted effect of over 50% in size
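HEK293 Fluc reporter, 2,500 cells/well, 24 h pre-culture; cpds up to 57.5 uM final, 24 h 37 degrees C; Dual-Glo, 10 min RT; normalized vehicle = 0%, zero RLU = -100%.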
Numbers without * were called inactive; ? = inconclusive; / = no result given; [ ] = another dose, or the depositor's remark. Potency is the fitted concentration of half-maximal effect.

SMILES | PMP22 txn | HTT promoter inh
CCOC(=O)c1noc2nc(C)n(Cc3ccc([N+](=O)[O-])cc3)c(=O)c12 | 28% | -18%
CCOc1ccc(CN(CCc2ccc3c(c2)OCO3)Cc2cc(OC)c(OC)cc2OC)cc1 | ? | -18%
COc1ccccc1CNC(=O)C(NS(=O)(=O)c1ccc2c(c1)CCN2C(C)=O)C(C)C (stereo not given) | 8% | -10%
Cc1cccc(OCC(=O)Nc2ccc3nc(Nc4cccc(C(F)(F)F)c4)cc(C)c3c2)c1 | ? | -34%
COc1ccc(Cn2c(=O)[nH]c3cc(C(=O)N4CCN(c5cc(Cl)ccc5C)CC4)ccc3c2=O)cc1 | -23% | -10%
CC(NC(=O)Cc1ccc(NC(=O)N2CCSc3ncccc32)cc1)c1ccccc1 (stereo not given) | -18% | ?
Cc1c(C(=O)Nc2ccc(-n3c(C)nc4ccccc4c3=O)cc2)cccc1[N+](=O)[O-] | ? | -22%
N#Cc1c(O)c2c(-c3ccc(-c4ccccc4O)cc3)csc2[nH]c1=O | / | 13%
CCOc1ccc(C(=O)N2CCC(c3nnc(-c4ccccc4OC)o3)CC2)cc1 | -13% | 3%
COc1ccc(OC)c(NC(=O)CN2C(=O)CC(c3ccco3)Sc3ccccc32)c1 (stereo not given) | ? | ?
Cc1cc(N(CCO)Cc2ccccc2)n2nc(-c3ccc(C(C)(C)C)cc3)nc2n1 | ? | 2%
COc1cc(CNCCSc2nnnn2C)ccc1OCc1c(F)cccc1Cl | ? | -15%
COc1ccc(C(=O)NCC(c2ccc(N(C)C)cc2)N2CCc3ccccc32)cc1 (stereo not given) | ? | -18%
CCC(C)NC(=O)CSc1nc2n[nH]c(C)c2c(=N)n1-c1cc(Cl)ccc1C (stereo not given) | -12% | ?
CCn1cc(C(=O)NCc2ccccc2)c(=O)c2cc(S(=O)(=O)N3CCCCCC3)ccc21 | ? | -6%
Cc1cccc(C(=O)N(Cc2ccccc2F)C2CCS(=O)(=O)C2)c1 (stereo not given) | 5% | 3%
CCN(CC)S(=O)(=O)c1ccc2c(c1)N(CC(=O)Nc1c(C)cc(C)cc1C)C(=O)CS2 | 4% | -16%
COC(=O)CC1Oc2ccc(F)cc2-n2cc(-c3ccc(C)cc3)nc21 (stereo not given) | -12% | ?
Cc1ccc(Cl)cc1N1CCN(C(=O)c2ccc3c(c2)N(Cc2ccccc2F)C(=O)c2ccccc2S3=O)CC1 (stereo not given) | -16% | -15%
Cc1ccc(Cn2cc(CCC(=O)NCc3ccccc3F)c3ccccc32)cc1 | -24% | -19%

Sorted by number of heavy atoms (rising): some entries from above
SMILES | PMP22 txn | HTT promoter inh
Cc1cccc(C(=O)N(Cc2ccccc2F)C2CCS(=O)(=O)C2)c1 (stereo not given) | 5% | 3%
COC(=O)CC1Oc2ccc(F)cc2-n2cc(-c3ccc(C)cc3)nc21 (stereo not given) | -12% | ?
CCC(C)NC(=O)CSc1nc2n[nH]c(C)c2c(=N)n1-c1cc(Cl)ccc1C (stereo not given) | -12% | ?
COc1cc(CNCCSc2nnnn2C)ccc1OCc1c(F)cccc1Cl | ? | -15%
CCOc1ccc(C(=O)N2CCC(c3nnc(-c4ccccc4OC)o3)CC2)cc1 | -13% | 3%
COc1ccc(C(=O)NCC(c2ccc(N(C)C)cc2)N2CCc3ccccc32)cc1 (stereo not given) | ? | -18%
COc1ccccc1CNC(=O)C(NS(=O)(=O)c1ccc2c(c1)CCN2C(C)=O)C(C)C (stereo not given) | 8% | -10%
CCn1cc(C(=O)NCc2ccccc2)c(=O)c2cc(S(=O)(=O)N3CCCCCC3)ccc21 | ? | -6%
Cc1cccc(OCC(=O)Nc2ccc3nc(Nc4cccc(C(F)(F)F)c4)cc(C)c3c2)c1 | ? | -34%
CCOc1ccc(CN(CCc2ccc3c(c2)OCO3)Cc2cc(OC)c(OC)cc2OC)cc1 | ? | -18%
COc1ccc(Cn2c(=O)[nH]c3cc(C(=O)N4CCN(c5cc(Cl)ccc5C)CC4)ccc3c2=O)cc1 | -23% | -10%
Cc1ccc(Cl)cc1N1CCN(C(=O)c2ccc3c(c2)N(Cc2ccccc2F)C(=O)c2ccccc2S3=O)CC1 (stereo not given) | -16% | -15%

Following part
SMILES | PMP22 txn | HTT promoter inh
Cc1cc(C)cc(NS(=O)(=O)c2ccc(N3CCCCS3(=O)=O)cc2)c1 | ? | ?
CCc1cc2cc(OC)c(OC)cc2c(Cc2ccccc2)n1 | / | -1%
O=C(NCCC1=CCCCC1)c1ccc2c(c1)sc1nc(-c3ccc(F)cc3)cn12 | -21% | 8%
COc1ccc2c(c1)-c1nc(NC(=O)c3ccc(Cl)cc3)sc1CC2 | ? | -30%
CC(=O)c1cccc(Nc2nn(-c3ccc(OC(F)(F)F)cc3)nc2C(C)=O)c1 | -6% | -29%
Cc1cc(C)c(NC(=O)CSc2ccc(-c3ccccn3)nn2)c(C)c1 | -53% | 4%
O=C(NCC1(c2ccccc2)CCCC1)C(=O)Nc1cccc(C(F)(F)F)c1 | -27% | -4%
CCN(c1cccc(C)c1)C(CNS(=O)(=O)c1ccccc1)c1ccccc1 (stereo not given) | ? | ?
Cc1cccc(Cn2c(=O)n(CCc3ccccc3)c(=O)c3sc4ccccc4c32)c1 | -6% | -7%
CCc1ccccc1Nc1nn2c(=O)c3ccc(C(=O)NC(C)C)cc3nc2s1 | 6% | -3%
COc1ccc(CCNC(=O)CCc2c(C)nc3c(c(C)nn3-c3ccc(C)c(C)c3)c2C)cc1OC | -36% | -15%
CCOC(=O)c1ccc(NC(=O)CSc2nc3ncc(Br)c(C)c3[nH]2)cc1 | -21% | -6%
CC(C)c1nn2c(=O)cc(COC(=O)c3ccc(NC(=O)CCc4ccccc4)cc3)nc2s1 | ? | 24%
Cc1c(Cl)cccc1NC(=O)c1ccc(C(=O)Nc2cccc(Cl)c2C)cc1 | -2% | 2%
COc1cccc2cc(-c3nc(-c4ccccc4F)no3)c(=O)oc12 | ? | 15%
Cc1cc(=O)n2nc(N3CCC(C(=O)NCc4ccccc4F)CC3)sc2n1 | -33% | -12%
COc1ccc(NC(=O)CSc2nnc(-c3ccc(C)cc3)o2)cc1 | -37% | 1%
Cc1ccc(NC(=O)C2CCCN2S(=O)(=O)c2cccc3nsnc23)cc1Cl (stereo not given) | -28% | ?
Cc1cc(C)cc(NC(=O)Cn2c(=O)oc3cc(S(=O)(=O)N4CCCC4)ccc32)c1 | -27% | ?
O=C(OCc1cc(=O)n2nc(-c3cccs3)sc2n1)c1cccc(Cl)c1 | -19% | -2%
Cc1ccc(Sc2c(C)nn(C(=O)c3ccc(Br)cc3)c2C)cc1 | -9% | -20%
Cc1cc(C)cc(Nc2ncnc3sc4c(c23)CCCC4)c1 | -19% | -7%
Cc1cccc(NC(=O)C2CCN(S(=O)(=O)c3cccc4nsnc34)CC2)c1 | -18% | ?
Cc1cc(C)cc(C(=O)Nc2c(C(=O)Nc3ccccc3F)oc3ccccc23)c1 | -56% | -26%
CCN(CC)C(=O)C1=C(C)Nc2nc3ccccc3n2C1c1ccc(Br)cc1 (stereo not given) | -14% | -1%
O=C(NCc1ccccc1Cl)c1ccc2oc(=O)n(Cc3ccccc3)c2c1 | ? | ?
CCOC(=O)C1CCN(C(=O)CCS(=O)(=O)c2cc3c(cc2Cl)NC(=O)CO3)CC1 | -16% | -8%
N#C/C(=C/c1cn(Cc2ccc(F)cc2)c2ccccc12)C(=O)Nc1cccc(Cl)c1 | -3% | ?
COc1ccc(N(Cc2cccs2)C(=O)COc2cc(C)c(Cl)c(C)c2)cc1 | -2% | ?
COc1ccccc1NC(=O)C(=O)NCC(c1cccnc1)N1CCc2ccccc2C1 (stereo not given) | 1% | -6%
COc1ccc(C(CNC(=O)COc2cc(C)cc(C)c2)N2CCCCC2)cc1 (stereo not given) | -20% | -16%
CCN1CCN(C(=O)N[C@@H](C(=O)N[C@@H]2C(=O)N3C(C(=O)O)=C(CSc4nnnn4C)CS[C@H]23)c2ccc(O)cc2)C(=O)C1=O | / | -2%
Cc1cc(NC(=O)CCNS(=O)(=O)c2cccc3nsnc23)ccc1Br | -3% | -27%
COc1ccccc1C(=O)Nc1cc2c(cc1N1CCCC1)n(C)c(=O)c(=O)n2C | 5% | -7%
CCN1CCN(CCCNC(=O)c2ccc3c(c2)sc2nc(-c4ccc(OC)cc4)cn23)CC1 | ? | ?
Cc1cccc(NC(=O)CSc2nc(=O)n(CCN3CCOCC3)c3c2CCC3)c1 | -34% | -12%
CCN1C(=O)c2ccccc2Sc2ccc(NC(=O)c3ccc(C#N)cc3)cc21 | 25% | 4%
Cc1cccc(CCNC(=O)CCc2c(C)nc3ncnn3c2C)c1 | -20% | 5%
COc1ccc(S(=O)(=O)NCc2nc(-c3ccccc3)no2)cc1 | -7% | -14%
O=C(Nc1nc2n(n1)C(c1ccc(F)cc1)C=C(c1ccccc1)N2)c1ccc(Cl)cc1 (stereo not given) | -24% | ?
Fc1ccc(C(c2nnc(-c3ccccc3)o2)N2CCN(c3ccccc3)CC2)c(Cl)c1 (stereo not given) | -2% | -35%
Cc1ccc(NC(=O)C2CCCN(S(=O)(=O)c3ccc4c(c3)CCCC(=O)N4)C2)cc1Cl (stereo not given) | ? | ?
O=c1c2ccccc2nc(-c2ccc(Cl)cc2)n1CCCOc1ccccc1F | 5% | -4%
COc1cc(-c2noc(CCC(=O)Nc3cc(C)ccc3C)n2)cc(OC)c1OC | ? | ?
Cc1cccc(-c2nc(C(N)=O)c3c(n2)n(-c2ccc4c(c2)OCO4)c(=O)n3C)c1 | -18% | -4%
COc1ccc(OCC(=O)Nc2ccccc2C(=O)OCc2cc(=O)n3nc(C)sc3n2)cc1 | -5% | -9%
COc1ccccc1CNC(=O)COCc1cc(-c2ccc3c(c2)OCO3)on1 | -15% | -20%
NC(=O)C1CCN(C(=O)c2ccccc2NC(=O)c2nsc3ccccc23)CC1 | -2% | 37%
O=C(NC1CC(=O)N(c2cccc(F)c2)C1)C1CCCC1 (stereo not given) | 20% | 3%
CCN(CC)c1cc(C)c2cc(NC(=O)c3cccc(OC)c3OC)ccc2n1 | ? | -7%
COc1ccc(S(=O)(=O)n2ccnc2)cc1C(C)(C)C | -4% | 0%
O=C(CSc1nc2c(oc3ccccc32)c(=O)n1-c1ccccc1F)Nc1ccccc1 | 2% | -20%
CCN(CC)CCOc1ccc(C(O)(Cc2ccc(Cl)cc2)c2ccc(C)cc2)cc1 (stereo not given) | / | 6%
CC(=O)N1c2ccc(S(=O)(=O)NCC3CCC(C(=O)Nc4ccc(C)c(C)c4)CC3)cc2CC1C (stereo not given) | ? | -2%
COc1cc(Cl)c(C)cc1NC(=O)C1CCN(c2nc3ccccc3n3cccc23)CC1 | ? | ?
Cc1nc(S(=O)(=O)N2CCN(c3ccccc3F)CC2)cn1C | 1% | -7%
COc1ccc(N2CCN(C(=O)c3cc(S(=O)(=O)N4CCC(C)CC4)cn3C)CC2)cc1 | -1% | ?
O=C(O)c1ccc2nc(-c3cc4cccc(O)c4oc3=O)[nH]c2c1 | -2% | ?
Cc1ccc(CSc2ccc(-c3cccs3)nn2)cc1 | 0% | 67%[activator]
O=C(c1ccco1)N1CCN(c2nc3c(Cl)cccc3s2)CC1 | ? | -2%
New compounds follow:
SMILES | PMP22 txn | HTT promoter inh
CCN(C(=O)c1ccc2c(=O)n3c(nc2c1)CCCCC3)c1cc(C)ccc1C | 1% | -20%
O=C(CC1(O)C(=O)N(Cc2ccccc2)c2ccc(Br)cc21)c1ccccc1 (stereo not given) | ? | ?
FC(F)(F)c1ccccc1-n1ccnc1 | / | 4%
COc1ccc2c(c1)c(=O)c(S(=O)(=O)c1ccc(Cl)cc1)cn2C | -2% | -17%
Cc1ccc(CN(Cc2ccco2)c2cnc(S(C)(=O)=O)nc2C(=O)Nc2ccc(Br)cc2)o1 | -10% | -38%
CCn1c(C)c(C)c2cc(C(=O)N3CCN(c4ccccc4)CC3)ccc21 | 13% | -3%
CCN(CC)CCNC(=O)c1c(C)oc2ncnc(N3CCOCC3)c12 | -3% | -2%
CC(=O)N1CCc2c(sc3c2c(=O)n(-c2ccccc2C)c(=O)n3Cc2cccc(F)c2)C1 | ? | -28%
Cc1ccc(-n2c(=O)c3cccnc3n2CC(=O)Nc2cccc(C)c2C)cc1 | -12% | -5%
O=C(CCNS(=O)(=O)c1cccc2nsnc12)Nc1ccc(F)cc1 | 2% | -2%
COc1ccc2c(Sc3ccc(Cl)cc3)c(C(=O)N3CCC(C)CC3)[nH]c2c1 | ? | ?
Cc1cc(=O)n(CC(=O)NCCC(C)C)c2c1c(C)nn2C | -27% | -26%
CCC1CN(C(=O)NCc2ccc(C)cc2)c2cc(Cl)ccc2O1 (stereo not given) | -27% | -25%
Cc1cc(OCC(=O)NCC2(N3CCOCC3)CCCCC2)ccc1Cl | ? | -26%
CCn1cc(C(=O)N2CCN(c3cccc(C(F)(F)F)c3)CC2)c2cc(OC)c(OC)cc2c1=O | ? | -15%
CCOC(=O)c1c(Nc2cc(C)cc(C)c2)nnc(-c2ccccc2)c1-c1ccccc1 | ? | -27%
